GLA inh pH 4.5: qHTS Assay for Inhibitors of Human alpha-Galactosidase at pH 4.5; Alpha-galactosidase A (Homo sapiens), P06280; purified enzyme, 4-MU-alpha-Gal fluorescence, pH 4.5; activity change, negative = inhibition, % at 105 µM; 230,000 tested, under 10 active; inconclusive = small, poorly fitted or top-dose-only inhibition, or a rising curve; inactive = flat fitted curve, though single readings scatter; no compound was filed as active;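 note: 0% = full activity with enzyme and -100% = basal without enzyme; dose as in the result columns while the protocol names 77 µM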
Target sequence (P06280 whole entry, looked up): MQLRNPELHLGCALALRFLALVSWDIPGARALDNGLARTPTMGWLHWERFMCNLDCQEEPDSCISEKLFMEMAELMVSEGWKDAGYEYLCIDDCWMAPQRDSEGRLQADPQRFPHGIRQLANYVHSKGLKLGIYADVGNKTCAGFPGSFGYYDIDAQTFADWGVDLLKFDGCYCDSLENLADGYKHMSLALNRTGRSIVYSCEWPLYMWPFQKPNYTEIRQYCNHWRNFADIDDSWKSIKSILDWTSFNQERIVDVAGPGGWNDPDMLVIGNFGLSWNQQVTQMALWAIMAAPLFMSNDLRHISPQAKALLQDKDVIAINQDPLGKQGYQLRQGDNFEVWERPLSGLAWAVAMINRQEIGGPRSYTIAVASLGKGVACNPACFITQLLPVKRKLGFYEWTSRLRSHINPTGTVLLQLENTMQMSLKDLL
Rango dissoc inh: qHTS Assay for Inhibitors of RanGTP induced Rango (Ran-regulated importin-beta cargo) - Importin beta complex dissociation; Snurportin-1 (Homo sapiens) + GTP-binding nuclear protein Ran (Homo sapiens) + Importin …; Biochemical FRET Rango-importin beta, RanGTP-induced dissociation; Potency, µM (doses to about 46.1 µM), for inactives: at the top dose activity change, negative = inhibition; 340,000 tested, 0.071% active; active means falling FRET ratio curve, often poorly fitted, with flat reads before Ran was added; inconclusive means other falling curves, or compound fluorescence or quenching; inactive means flat or rising ratio curve;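 note: potency is the fitted concentration of half-maximal effect; % of control where 0% means no effect; nearly all actives have a fitted effect of over 45% in size; -100% = wells without RanGTP and RCC1; the record marks most hits as doubtful in a second field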
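Rango FRET biosensor (snurportin-1 IBB flanked by N-terminal EYFP and C-terminal CFP10) at 0.1 uM, with 0.25 uM importin beta in PBS, 1mM DTT, 0.02% Tween-20, 0.1% BSA. 0.6 uM Ran, 2mM GTP and 0.2 uM RCC1 were then added for 45 min at room temperature. Inhibition read as loss of FRET rise.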
miR-21 FLuc: qHTS Assay for Modulators of miRNAs and/orActivators of miR-21 | HeLa miR-21 FLuc reporter, luciferase, 48 h | Potency, µM (top dose mostly 38.3 µM), inactives show at the highest dose reporter change, positive = more light | 340,000 tested, under 10 active; active = well fitted rising curve with a large enough effect; inconclusive = small, poorly fitted or top-dose-only effect; inactive = no such curve, though single readings can be large or run the other way;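 note: % of control where 0% means no effect; miR-21 action dims this reporter so a rising signal means less miR-21 action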
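Luminescence from a firefly luciferase reporter carrying a miR-21 binding site downstream, stably expressed under a CMV promoter in HeLa cells that make miR-21 endogenously, reports miRNA modulation after 48 h compound exposure up to approximately 40uM final.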
Rango complex inh: qHTS Assay for Inhibitors of Rango (Ran-regulated importin-beta cargo) - Importin beta complex formation; Importin subunit beta-1 (Homo sapiens), Q14974; Rango CFP/YFP FRET sensor + importin beta, 45 min; Potency, µM (doses to about 92.2 µM), inactives show top-dose inhibition of complex formation; 340,000 tested, 0.031% active; AID 540263, 2011; active = rising FRET ratio curve, often small or poorly fitted; inconclusive = mostly compound fluorescence or quenching in the first reads; inactive = flat curves in all reads;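 note: potency is the fitted concentration of half-maximal effect; 0% = DMSO wells and 100% = buffer wells lacking importin beta; nearly all actives have a fitted effect of over 15% in size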
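Inhibition scored from the CFP 486 nm/YFP 530 nm FRET ratio 45 min after adding 0.125 microM importin beta to 50 nM Rango biosensor preincubated 5 min with compound (room temperature, PBS with DTT, Tween-20, BSA). No-importin wells as positive control.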
* = called active by the depositor; & = joins results of further samples. These rows are one share of the data; count on the stated rates, not on these rows.

What do the screens show for `COCCNC(=O)c1cc2c(-c3ccccc3F)nn(C)c2s1`?
GLA inh pH 4.5: 4; Rango dissoc inh: 2%; miR-21 FLuc: 5%; Rango complex inh: 2.8%

What do the screens show for `Cc1ccccc1CCNC(=O)Cn1ccc2cc(S(=O)(=O)N3CCCC3)ccc21`?
Rango dissoc inh: 19%; miR-21 FLuc: 3%; Rango complex inh: 0.2%

How did COc1ccccc1C(=O)n1nc(-c2ccc(Cl)cc2)nc1N do in these assays?
GLA inh pH 4.5: 7; Rango dissoc inh: 1%; miR-21 FLuc: -13%; Rango complex inh: -2.2%

How did COc1cccc(NC(=O)[C@H](CC(C)C)NC(=O)N2CCn3c2nc2ccccc23)c1 do in these assays?
Rango dissoc inh: -14%; miR-21 FLuc: 1%; Rango complex inh: -4.4%

What do the screens show for `Cc1cc(OC(C)C(=O)Nc2ccccc2C(=O)N2CCCC2)ccc1Cl` (stereo unspecified)?
Rango dissoc inh: 0%; miR-21 FLuc: 1%; Rango complex inh: -0.6%

What do the screens show for `CCOC(=O)C(=O)NNc1ccc(Cl)cc1`?
GLA inh pH 4.5: -6; Rango dissoc inh: -16%; miR-21 FLuc: 3%; Rango complex inh: 0.1%

How did Cc1c(N2C(=O)/C(=C\C3CC=CCC3)SC2=S)c(=O)n(-c2ccccc2)n1C (stereo unspecified) do in these assays?
GLA inh pH 4.5: 3; Rango dissoc inh: 8%; miR-21 FLuc: -1%; Rango complex inh: 0.6%

What do the screens show for `O=C(c1ccco1)N1CCN(c2ncnc3c2[nH]c2ccc(Cl)cc23)CC1`?
GLA inh pH 4.5: 6; miR-21 FLuc: -21%

Results for COc1ccc(CC(=O)OC(C)CN2CCOCC2)cc1 (stereo unspecified) ?
GLA inh pH 4.5: 4; Rango dissoc inh: -4%; miR-21 FLuc: -3%; Rango complex inh: 1.6%

What do the screens show for `COc1ccc(C2/C(=C(/O)c3ccccc3)C(=O)C(=O)N2c2ccccn2)c(OC)c1` (stereo unspecified)?
GLA inh pH 4.5: -9; Rango dissoc inh: 0%; miR-21 FLuc: -11%; Rango complex inh: -0.2%

Results for COc1ccccc1N1CC(C(=O)Nc2nnc(SC)s2)CC1=O (stereo unspecified) ?
Rango dissoc inh: -8%; miR-21 FLuc: 4%; Rango complex inh: inconclusive

How did O=C(NCc1ccccn1)C1CCN(S(=O)(=O)c2cccs2)CC1 do in these assays?
GLA inh pH 4.5: -4; Rango dissoc inh: 36%; miR-21 FLuc: -2%; Rango complex inh: 3.5%

How did O=C(CN1C(=O)/C(=C\c2ccccc2Cl)Sc2ccccc21)NCCCN1CCOCC1 do in these assays?
Rango dissoc inh: 18%; miR-21 FLuc: 3%; Rango complex inh: -1.0%

Results for Cc1ccc(C2CC(=O)N3CN(Cc4ccco4)CSC3=C2C#N)cc1 (stereo unspecified) ?
GLA inh pH 4.5: -7; Rango dissoc inh: -11%; miR-21 FLuc: -4%; Rango complex inh: inconclusive

What do the screens show for `Cc1nc2ccccc2c2oc(C(=O)NCc3ccc4c(c3)OCO4)cc12`?
GLA inh pH 4.5: 0; Rango dissoc inh: -19%; miR-21 FLuc: 15%; Rango complex inh: -2.3%

What do the screens show for `Cc1ccc(NC(=O)CCC(=O)NNC(=O)c2ccccc2Cl)c(C)c1`?
GLA inh pH 4.5: -10; Rango dissoc inh: -10%; miR-21 FLuc: 0%; Rango complex inh: 0.6%

What do the screens show for `Cc1cc(Cl)ccc1OCCCC(N)=O`?
GLA inh pH 4.5: 3; Rango dissoc inh: 7%; miR-21 FLuc: -15%; Rango complex inh: -0.6%

How did CCN(c1cccc(C)c1)S(=O)(=O)c1cc2c3c(c1)CCC(=O)N3CCC2 do in these assays?
Rango dissoc inh: -5%; Rango complex inh: 3.0%

How did Brc1ccc(C2=Nn3cnnc3SC2)cc1 do in these assays?
Rango dissoc inh: 2%; miR-21 FLuc: -4%; Rango complex inh: -0.2%

What do the screens show for `COC(=O)c1sccc1NC(=O)CSc1ccccc1NS(=O)(=O)c1cc(Cl)ccc1Cl`?
GLA inh pH 4.5: -5; Rango dissoc inh: 10%; miR-21 FLuc: 1%; Rango complex inh: 4.8%

How did COc1ccc(CCNC(=O)C23CCC(C)(C(=O)O2)C3(C)C)cc1OC (stereo unspecified) do in these assays?
GLA inh pH 4.5: 8; Rango dissoc inh: 3%; miR-21 FLuc: -4%; Rango complex inh: 2.6%

Results for O=C1CN(C(=O)COC(=O)CNS(=O)(=O)c2ccccc2)c2ccccc2N1 ?
GLA inh pH 4.5: -6; Rango dissoc inh: -11%; miR-21 FLuc: 0%; Rango complex inh: 2.0%

What do the screens show for `Cc1cc(NS(=O)(=O)c2ccc(NC(=O)/C=C/c3c(F)cccc3Cl)cc2)no1`?
Rango dissoc inh: 4%; miR-21 FLuc: -9%; Rango complex inh: -0.2%

Results for CCNC(=S)N1CCC(C(=O)c2ccc(Cl)cc2)CC1 ?
Rango dissoc inh: 1%; miR-21 FLuc: 0%; Rango complex inh: 5.7%

How did CCN1C[C@@H]2[C@@H]3C(=O)N(Cc4ccccc4)C(=O)[C@@H]3[C@](CC)(C1=O)N2C(=O)c1ccc(C(C)(C)C)cc1 do in these assays?
Rango dissoc inh: -9%; Rango complex inh: 1.7%

Results for CC(C(=O)NCC1CCCO1)N1C(=O)C2C3CC(C(Br)C3Br)C2C1=O (stereo unspecified) ?
GLA inh pH 4.5: 0; Rango dissoc inh: 2%; miR-21 FLuc: 1%; Rango complex inh: -0.4%

What do the screens show for `CCN(CC)S(=O)(=O)c1cccc(-c2nnc(SCC#N)n2Cc2ccccc2)c1`?
GLA inh pH 4.5: 1; Rango dissoc inh: -22%; miR-21 FLuc: -3%; Rango complex inh: -0.4%

How did S=C(c1ccc(N2CCCC2)c(Br)c1)N1CCCCC1 do in these assays?
GLA inh pH 4.5: 5; Rango dissoc inh: inconclusive; miR-21 FLuc: -26%; Rango complex inh: 0.3%

Results for Cc1ccc(OCC(=O)c2c(N)n(C)c(=O)n(C)c2=O)c([N+](=O)[O-])n1 ?
Rango dissoc inh: -13%; Rango complex inh: -4.5%

What do the screens show for `COc1ccc(Cc2nc3ccccc3n2CC(=O)N/N=C/c2ccccc2)cc1OC`?
GLA inh pH 4.5: -8; Rango dissoc inh: -1%; miR-21 FLuc: -4%; Rango complex inh: 1.0%

Results for CN1CCCN(C(=O)C2CCC(C(=O)N3CCCN(C)CC3)CC2)CC1 (stereo unspecified) ?
GLA inh pH 4.5: 3; Rango dissoc inh: -1%; miR-21 FLuc: 0%; Rango complex inh: -2.7%

What do the screens show for `O=C(CCSCc1ccc(Cl)cc1)NCc1cccs1`?
GLA inh pH 4.5: -18; Rango dissoc inh: -3%; miR-21 FLuc: -1%; Rango complex inh: -0.1%

What do the screens show for `O=C(COc1ccccc1)N=C1SC2CS(=O)(=O)CC2N1c1ccc(F)cc1` (stereo unspecified)?
Rango dissoc inh: 11%; miR-21 FLuc: -1%; Rango complex inh: 0.8%

What do the screens show for `O=C(c1ccc2c(=O)n3c(nc2c1)CCCCC3)N1CCN(C(c2ccccc2)c2ccccc2)CC1`?
GLA inh pH 4.5: -3; Rango dissoc inh: -1%; miR-21 FLuc: 20%; Rango complex inh: 0.0%

Results for Cn1c(=O)[nH]c(=O)c2c1nc(SCC(N)=O)n2Cc1cccc(Br)c1 ?
Rango dissoc inh: 5%; miR-21 FLuc: -14%; Rango complex inh: 7.1%

Results for COc1ccc(-c2csc3ncnc(N4CCN(c5ccccc5O)CC4)c23)cc1 ?
Rango dissoc inh: 1%; miR-21 FLuc: 12%; Rango complex inh: -0.6%

How did O=C(O)C1=CCCN(CCON=C(c2ccccc2)c2ccccc2)C1 do in these assays?
GLA inh pH 4.5: 4&-2; Rango dissoc inh: -5%; Rango complex inh: -1.3%

What do the screens show for `COc1cc(OC)cc(C(=O)Nc2cc(C)nn2-c2ccccc2)c1`?
Rango dissoc inh: -20%; miR-21 FLuc: -3%; Rango complex inh: 0.7%

Results for Cc1ccc(NC(=O)N(CCC(=O)O)Cc2ccccc2)cc1 ?
GLA inh pH 4.5: -3; Rango dissoc inh: 0%; miR-21 FLuc: 2%; Rango complex inh: -0.2%

Results for COc1cc2c(c(OC)c1OC)C(=O)CC2 ?
GLA inh pH 4.5: 1; Rango dissoc inh: -11%; miR-21 FLuc: 0%; Rango complex inh: 0.0%

Results for CC(=O)Oc1ccc(OC(C)=O)c(SCCCCCN2CCOCC2)c1 ?
GLA inh pH 4.5: 8; Rango dissoc inh: 0%; miR-21 FLuc: inconclusive; Rango complex inh: 0.7%

Results for C=CCOc1ccc(/C(O)=C2/C(=O)C(=O)N(CCN3CCOCC3)C2c2ccc(C)cc2)cc1 (stereo unspecified) ?
GLA inh pH 4.5: 1; Rango dissoc inh: 2%; miR-21 FLuc: -5%; Rango complex inh: -0.7%

What do the screens show for `Cc1ccc(NC(=O)c2ccc(S(=O)(=O)NCc3ccco3)cc2)nc1`?
Rango dissoc inh: 13%; Rango complex inh: -4.3%

What do the screens show for `CCN(CC)CCCn1c2c(c(SCC(=O)Nc3cc(C)on3)nc1=O)CCC2`?
Rango dissoc inh: 21%; Rango complex inh: -1.1%

Results for CCOc1ccc(NC(=O)CSc2nc3ccccc3c(=O)n2CCCC(=O)N2CCCC2)cc1 ?
GLA inh pH 4.5: 1; Rango dissoc inh: 1%; miR-21 FLuc: 1%; Rango complex inh: 1.6%

What do the screens show for `Cc1[nH]nc(SCC(=O)NCC(C)C)c1[N+](=O)[O-]`?
GLA inh pH 4.5: 2; Rango dissoc inh: -2%; miR-21 FLuc: -5%; Rango complex inh: 0.8%

What do the screens show for `Cc1c(C=O)c(C=O)c(C)n1Cc1ccccc1`?
GLA inh pH 4.5: -3; Rango dissoc inh: -10%; miR-21 FLuc: inconclusive; Rango complex inh: 0.5%

Results for COc1c(F)c(F)c(C(=O)Nc2ccc(NC(=O)Cc3ccccc3)cc2)c(F)c1F ?
GLA inh pH 4.5: 2; Rango dissoc inh: 16%; miR-21 FLuc: -4%; Rango complex inh: -0.4%

What do the screens show for `COc1ccc(NC(=O)c2cc(OC)c(OC)c(OC)c2)cn1`?
GLA inh pH 4.5: -5; Rango dissoc inh: 1%; miR-21 FLuc: -5%; Rango complex inh: -2.3%

What do the screens show for `C#Cc1ccc([C@@H]2C=C(C(=O)NCc3ccccc3)O[C@H](OCc3ccc(CO)cc3)C2)cc1`?
GLA inh pH 4.5: -1; Rango dissoc inh: -13%; miR-21 FLuc: 0%; Rango complex inh: -1.9%

How did Cc1ccc(S(=O)(=O)N(C)C)cc1NC(=O)COC(=O)c1ccc2c(c1)NC(=O)CS2 do in these assays?
GLA inh pH 4.5: -26; Rango dissoc inh: inconclusive; miR-21 FLuc: 3%; Rango complex inh: 2.4%

What do the screens show for `CC(C)Oc1ccc(/C(O)=C2/C(=O)C(=O)N(CCN3CCNCC3)C2c2cccc([N+](=O)[O-])c2)cc1` (stereo unspecified)?
Rango dissoc inh: 2%; miR-21 FLuc: 3%; Rango complex inh: -2.1%

Already shown: an excerpt of the list.
What do the screens show for `COc1ccc(NC(=O)c2cc(OC)c(OC)c(OC)c2)cn1`?
GLA inh pH 4.5: -5; Rango dissoc inh: 1%; miR-21 FLuc: -5%; Rango complex inh: -2.3%

What do the screens show for `C#Cc1ccc([C@@H]2C=C(C(=O)NCc3ccccc3)O[C@H](OCc3ccc(CO)cc3)C2)cc1`?
GLA inh pH 4.5: -1; Rango dissoc inh: -13%; miR-21 FLuc: 0%; Rango complex inh: -1.9%

How did Cc1ccc(S(=O)(=O)N(C)C)cc1NC(=O)COC(=O)c1ccc2c(c1)NC(=O)CS2 do in these assays?
GLA inh pH 4.5: -26; Rango dissoc inh: inconclusive; miR-21 FLuc: 3%; Rango complex inh: 2.4%

What do the screens show for `CC(C)Oc1ccc(/C(O)=C2/C(=O)C(=O)N(CCN3CCNCC3)C2c2cccc([N+](=O)[O-])c2)cc1` (stereo unspecified)?
Rango dissoc inh: 2%; miR-21 FLuc: 3%; Rango complex inh: -2.1%
